TRPML1 blocker: human mucolipin-1 channel inhibition | Q9GZU1 | 390,000 tested, 0.02% active | TRPML1-inducible cells, Ca2+ dye fluorescence, FDSS; hits give low values; inhibition of EC80 agonist-evoked calcium signal | AID 624415 | activity change, negative = inhibition, % (test concentration not listed); in the data active means activity change below about -50%; inconclusive means about -30% to -50%; inactive means above about -30%;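 note: stimulus is agonist 54-4 at its EC80 concentration; % is set by controls: 0 for no effect and ±100 for the full control effect; compound concentration not given in the record; the text of the record puts the active cut at -80%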
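TRPML1-DL cells, Tet-induced overnight (~16 h, 37 °C) at 1,500 cells/well, were loaded with Ca8 no-wash dye plus quencher for 45-90 min at room temperature. Compounds were pinned during FDSS kinetic reading; agonist 54-4 at EC80 (4 uM final) then added.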
TRPML1 agonist: human mucolipin-1 channel agonism | Q9GZU1 | TRPML1-expressing cells, Ca2+ dye fluorescence, FDSS; host cell line not named in the record; reference of the full effect not given here | activation, % (no concentration beside the values) | 410,000 tested, 0.12% active | AID 624414; in the data active = activation above about 50%; inconclusive = about 30% to 50%; inactive = below about 30%; note: 0% is about no effect; the text of the record puts the active cut at 80%
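TRPML1-DL cells, Tet-induced overnight (~16 h, 37 degrees C), loaded 45-90 min at room temperature with Ca8 no-wash calcium dye plus quencher. FDSS fluorescence: 10 s baseline, compound pin-transfer, 110 s agonist read, then EC80 54-4 (4uM final) and 110 s antagonist read.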
Six1-Eya2 blk: inhibitors of human Six1/Eya2 interaction | activity change, % (concentration not given with the values) | Q15475+O00167 | AID 651725 | 360,000 tested, 0.56% active | AlphaScreen GST-Six1/His-Eya2 binding, biochemical; hits give low values; control for the full effect not named in the record; in the data active = activity change below about -65%; inconclusive = about -30% to -65%; inactive = above about -30%; note: % is set by controls: 0 for no effect and ±100 for the full control effect
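AlphaScreen luminescence read after one hour at 37 °C in darkness. Pin-transferred compounds met GST-Six1 and His-Eya2 protein (5X stock 250 nM/500 nM) plus glutathione donor and Ni-chelate acceptor beads (5X, 50 ug/mL).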
D2 PAM: positive allosteric modulators of human D2 dopamine receptor; P14416; potentiation, % (concentration not given with the values); AID 624464; 360,000 tested, 0.23% active; DiscoveRx D2 beta-arrestin cells, luminescence, 90 min; 100% = 57 uM dopamine signal; active = potentiation of 50% or more; inconclusive = 30% to 50%; inactive = 30% or less;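 note: compound concentration not given in the record; tested on top of an EC20 dose of dopamine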
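D2 cells co-treated with compound plus 50 nM dopamine (EC20) for 90 min at 37 deg C to detect potentiation. Beta-arrestin recruitment was read as enzyme-fragment luminescence after 1 h at ambient temperature. Full response was set by 57 uM dopamine.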
CtBP-E1A inh: inhibitors of CtBP/E1A interaction. 340,000 tested, 0.49% active. AlphaScreen GST-E1A/His-CtBP binding, 1536-well; hits give low values; control for the full effect not named in the record. activity change, % (concentration not given with the values); in the data active means activity change below about -65%; inconclusive means about -30% to -65%; inactive means above about -30%; note: % is set by controls: 0 for no effect and ±100 for the full control effect
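In 5 uL wells, 23 nL compound meets equimolar GST-E1A and His-CtBP (5X stock 125 nM each) for 2 h, 37 °C. Beads (5X, 50 ug/mL) then 1 h, 37 °C, dark.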
TRPV1 potentiator: potentiators of human vanilloid receptor 1 (TRPV1); TRPV1-expressing cells, Fluo-8 calcium influx, capsaicin EC20 potentiation; host cell line not named in the record; control for the full effect not named in the record; 320,000 tested, 0.02% active; potentiation, % at 8.33 µM; AID 540277; active means potentiation above 80%; inconclusive means 30% to 80%; inactive means below 30%; note: 0% is about no effect
Target sequence (Q8NER1 whole entry, looked up): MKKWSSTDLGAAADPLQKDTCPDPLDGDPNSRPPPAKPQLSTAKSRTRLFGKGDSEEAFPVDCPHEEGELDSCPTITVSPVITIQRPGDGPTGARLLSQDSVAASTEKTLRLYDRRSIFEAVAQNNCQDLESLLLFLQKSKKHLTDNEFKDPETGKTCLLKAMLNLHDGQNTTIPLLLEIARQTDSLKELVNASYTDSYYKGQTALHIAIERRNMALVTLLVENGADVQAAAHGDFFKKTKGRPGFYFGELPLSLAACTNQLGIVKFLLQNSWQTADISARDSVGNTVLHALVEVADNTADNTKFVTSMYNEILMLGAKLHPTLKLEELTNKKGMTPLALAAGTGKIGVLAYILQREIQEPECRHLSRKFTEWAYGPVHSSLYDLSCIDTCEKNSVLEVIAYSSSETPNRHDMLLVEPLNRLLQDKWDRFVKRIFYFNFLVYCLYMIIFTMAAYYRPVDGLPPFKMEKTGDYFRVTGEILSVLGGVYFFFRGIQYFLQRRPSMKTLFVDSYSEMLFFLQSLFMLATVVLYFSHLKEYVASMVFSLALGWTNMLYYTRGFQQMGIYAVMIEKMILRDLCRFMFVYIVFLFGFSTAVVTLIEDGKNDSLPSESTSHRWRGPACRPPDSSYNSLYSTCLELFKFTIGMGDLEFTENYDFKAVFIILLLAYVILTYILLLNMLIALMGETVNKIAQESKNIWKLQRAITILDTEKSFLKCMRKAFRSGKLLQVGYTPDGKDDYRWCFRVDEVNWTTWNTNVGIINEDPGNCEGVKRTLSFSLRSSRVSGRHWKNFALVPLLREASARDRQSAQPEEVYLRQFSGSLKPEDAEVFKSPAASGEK
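Cells expressing TRPV1 were dye-loaded with Fluo-8 and read kinetically: 10 s baseline, 3 min after compound (agonist portion), then 2 min after EC20 capsaicin (allosteric enhancer portion). Calcium-bound dye fluorescence at 480/520 nm.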
Starred values were filed as active, the others as inactive; ? = inconclusive; . = not tested or not shown.

SMILES | TRPML1 blocker | TRPML1 agonist | Six1-Eya2 blk | D2 PAM | CtBP-E1A inh | TRPV1 potentiator
Cc1ccc(SCCNC(=O)c2cccc([N+](=O)[O-])c2C)cc1 | -1 | 3.0 | 6 | -7 | -3 | 2
CC(C)=NNc1cc([N+](=O)[O-])cc2c1C(=O)N(C)S2=O (centres undefined) | 24 | 2.8 | -3 | -4 | . | 24
O=C(Cn1c(COc2ccccc2)nc2ccccc21)Nc1cccc(Cl)c1 | -6 | 1.8 | 17 | -12 | 36 | 11
CCOc1ccc(C2NC(=O)C(C#N)=C(S)N2c2cccc(C)c2)cc1OC (centres undefined) | 10 | 0.4 | 0 | -7 | . | 6
Cc1ccc(C(=O)NCC(c2ccco2)N2CCc3ccccc32)cc1 (centres undefined) | -6 | 0.2 | -13 | 10 | -6 | -15
COCCNC(=O)C1CCCN(C(=O)c2sc(-c3ccccc3)nc2C)CC1 (centres undefined) | 36 | 0.3 | 6 | -15 | 4 | .
CC1CC(C)CN(c2ncc3c(n2)CC(c2ccccc2)CC3=O)C1 (centres undefined) | -7 | 15 | 2 | -5 | -2 | 4
O=C(CSc1nnnn1C1CCCC1)N1CCN(C(=O)c2ccco2)CC1 | -19 | 0.1 | 4 | 0 | -18 | -3
O=C(CCc1nnc2ccc(NCc3ccccc3)nn12)NCC1CCN(C2CCCC2)C1 (centres undefined) | 5 | 0.5 | -6 | -14 | . | -13
CC(=O)Nc1cccc(-c2csc(Nc3cccc(C)n3)n2)c1 | 4 | 1.5 | -2 | -16 | 8 | .
CN(CC(=O)Nc1ccc2c(c1)OCCO2)S(=O)(=O)c1ccc(F)cc1 | 4 | -0.6 | -4 | -11 | 0 | -3
COc1cccc(OC)c1C(=O)Nn1c(-c2cccs2)nc2ccccc2c1=O | -27 | 0.6 | 11 | 0 | . | -3
CCOc1ccc(OCC)c(NC(=O)C2CCCN(c3ncccn3)C2)c1 (centres undefined) | -17 | 2.8 | -2 | -2 | 1 | 10
O=C(Nc1cccc(-c2nnn(CC(=O)N3CCc4ccccc4C3)n2)c1)C1CCC1 | 16 | 1.1 | -3 | 14 | 1 | -14
CC1(C)CC(=O)C=C(NNC(=O)C2CCCCC2)C1 | 7 | 0.3 | -2 | -28 | 5 | -1
CCC1CCCCN1CCCNC(=O)c1cn(C)c2ccc(S(=O)(=O)N3CCOCC3)cc2c1=O (centres undefined) | 2 | 0.8 | -4 | -11 | -1 | 8
Nc1nc(-c2ccco2)nc(N2CCCCC2)n1 | -8 | 0.9 | -1 | 9 | 0 | 8
Cc1cccc(NC(=O)C2CCN(c3nccc(C)n3)CC2)c1 | 29 | -0.4 | 0 | -5 | 4 | 2
COc1ccc(NCc2nnc(SCC(=O)N3CCCc4ccccc43)o2)cc1 | 12 | 0.1 | -10 | 1 | -10 | 0
CCOC(=O)C1(C)/C(=N/Nc2cccc(Cl)c2)C(=O)C(=O)N1c1ccccc1 (centres undefined) | 53 | 1.8 | -8 | -5 | -1 | 4

Of the compounds above, three have a furan ring, fused or not.
SMILES | TRPML1 blocker | TRPML1 agonist | Six1-Eya2 blk | D2 PAM | CtBP-E1A inh | TRPV1 potentiator
Cc1ccc(C(=O)NCC(c2ccco2)N2CCc3ccccc32)cc1 (centres undefined) | -6 | 0.2 | -13 | 10 | -6 | -15
O=C(CSc1nnnn1C1CCCC1)N1CCN(C(=O)c2ccco2)CC1 | -19 | 0.1 | 4 | 0 | -18 | -3
Nc1nc(-c2ccco2)nc(N2CCCCC2)n1 | -8 | 0.9 | -1 | 9 | 0 | 8

Further compounds
SMILES | TRPML1 blocker | TRPML1 agonist | Six1-Eya2 blk | D2 PAM | CtBP-E1A inh | TRPV1 potentiator
COc1ccc(N=Nc2cc(-c3ccccc3)ccc2O)cc1 | 2 | 1.1 | ? | 0 | -69* | 19
COc1ccc(C2=NO[C@@](CC(=O)O)(C(=O)Nc3ccc4c(c3)OCCO4)C2)cc1 | -23 | 1.1 | -1 | 10 | 8 | 17
COc1cc(/C=C/C(=O)OCC(=O)NC(=O)NC(C)C)ccc1O | 3 | 0.6 | -1 | -13 | -2 | -10
CCOC(=O)c1cnc2ccc(C)cc2c1Sc1ccccc1 | -11 | 1.3 | -3 | -14 | 7 | 0
C[N+](C)(CC#Cc1ccccc1)CC(=O)c1ccccc1 | 1 | 0.2 | 11 | -25 | 5 | 15
CC(NC(=O)c1cc([N+](=O)[O-])cc([N+](=O)[O-])c1)C1CC2CCC1C2 (centres undefined) | -14 | -0.3 | -7 | 17 | -9 | -5
Cc1cccc(S(=O)(=O)C(C#N)c2nc3ccccc3nc2N2CCCC2)c1 (centres undefined) | -3 | 0.7 | 0 | -9 | -3 | -3
CC(C)NC(=O)CSc1nnc(CNC(=O)OC(C)(C)C)n1C | -14 | -0.6 | 6 | -3 | 5 | ?
Cc1cccc(C)c1NC(=S)/N=C/N(C)C | -1 | -0.4 | 0 | -5 | 0 | -4
O=C(CN1CCN(c2ccccc2)CC1)N/N=C/c1cccc(F)c1 | 20 | -0.2 | 0 | -12 | -2 | 7
CC(Oc1ccccc1)C(=O)Nc1ccc(F)c(S(=O)(=O)N2CCOCC2)c1 (centres undefined) | 1 | 0.1 | -13 | -11 | 3 | -26
O=C(NNC(=S)NCc1ccco1)c1ccc(Cl)s1 | 2 | 2.1 | 3 | 10 | -7 | 10
CCN(CC)CCN1C(=O)C(=O)/C(=C(/O)c2cnn(-c3ccccc3)c2C)C1c1cccnc1 (centres undefined) | -5 | 0.0 | 8 | -6 | 8 | 3
COCC(C)OC(=O)c1c(N)n(CC(C)C)c2nc3ccccc3nc12 (centres undefined) | 9 | 2.0 | -2 | -28 | -20 | 14
Cc1ccnc(NC(=O)CNC(=O)Cc2cccc3ccccc23)c1 | 13 | 2.7 | 1 | -10 | 0 | 4
Cc1ccc(S(=O)(=O)NCCCN(C)C)cc1 | 7 | 0.4 | 9 | -10 | 2 | ?
CCc1cccc(NS(=O)(=O)c2ccc3c(c2)N(C)CCO3)c1 | -5 | 1.0 | -12 | -6 | -12 | -2
CCc1nc2ccc(C(=O)Nc3cccc(NS(C)(=O)=O)c3)cn2c1N(CC)CCOC | . | -1.0 | 15 | 9 | 20 | .
Cc1ccc(C)c(NC(=O)c2nnn(Cc3ccccc3)c2N)c1 | -12 | 1.1 | 4 | -7 | 6 | -6
OC1(c2ccc3ccccc3c2)CCN(Cc2ccccc2)C1 (centres undefined) | -26 | -0.8 | 1 | -14 | -3 | -4

Two successive records already listed, for reference:
SMILES | TRPML1 blocker | TRPML1 agonist | Six1-Eya2 blk | D2 PAM | CtBP-E1A inh | TRPV1 potentiator
Cc1ccc(C)c(NC(=O)c2nnn(Cc3ccccc3)c2N)c1 | -12 | 1.1 | 4 | -7 | 6 | -6
OC1(c2ccc3ccccc3c2)CCN(Cc2ccccc2)C1 (centres undefined) | -26 | -0.8 | 1 | -14 | -3 | -4

Back to the main list; the three compounds before the break are reprinted first.
SMILES | TRPML1 blocker | TRPML1 agonist | Six1-Eya2 blk | D2 PAM | CtBP-E1A inh | TRPV1 potentiator
CCc1nc2ccc(C(=O)Nc3cccc(NS(C)(=O)=O)c3)cn2c1N(CC)CCOC | . | -1.0 | 15 | 9 | 20 | .
Cc1ccc(C)c(NC(=O)c2nnn(Cc3ccccc3)c2N)c1 | -12 | 1.1 | 4 | -7 | 6 | -6
OC1(c2ccc3ccccc3c2)CCN(Cc2ccccc2)C1 (centres undefined) | -26 | -0.8 | 1 | -14 | -3 | -4
Cc1ccc2c(c1)C1CN(C)CCC1N2C(=S)NC(=O)c1ccc(Cl)cc1Cl (centres undefined) | 12 | 0.2 | -8 | -21 | . | -2
CCN1C(=O)c2cccc3c(S(=O)(=O)Nc4c(C)n(C)n(-c5ccccc5)c4=O)ccc1c23 | -9 | 0.3 | -24 | -2 | -11 | -14
Cc1c(C(C)(C)O)[nH]c2cc(C(F)(F)F)ccc12 | 1 | 1.2 | -9 | -5 | -4 | -4
N/C(=N\OC(=O)c1ccc(Cl)cc1Cl)c1ccccn1 | -10 | 1.8 | 8 | 5 | 0 | 7
Cc1cccc(/C=C2\CCC(=C3SCCCS3)C2=O)c1 | 0 | 19 | -2 | 3 | -1 | 4
Cc1ccc(SCc2c(C(=O)N/N=C/c3ccoc3)nnn2-c2nonc2N)cc1 | -15 | 0.3 | -5 | -6 | . | -4
Cn1ccnc1SCC(=O)Nc1nc2c(F)c(F)c(F)cc2s1 | 14 | 3.1 | 1 | -8 | 3 | 7
NS(=O)(=O)c1ccc(NNC(=O)c2cccs2)cc1 | -4 | -0.1 | 3 | 5 | -6 | -11
O=C(O)C1(c2ccccc2)CCN(S(=O)(=O)c2ccc(F)c(F)c2)CC1 | -10 | 0.1 | 10 | 0 | 8 | 7
Cc1ccc(NC(=O)c2cc3c(s2)CCCC3)cc1S(=O)(=O)Nc1ccccc1Cl | 4 | 1.1 | -15 | -7 | -12 | 0
CCOC(=O)c1c(C)[nH]c(C(=O)COC(=O)CSC)c1C | -6 | 1.5 | 4 | 1 | -7 | 8
COc1ccc(C(=O)CSC#N)cc1OC | 16 | 0.8 | -25 | -16 | -18 | 12
O=C(COC(=O)/C=C/c1ccc(OC(F)F)cc1)NC(=O)NCc1ccccc1 | 1 | -0.5 | 2 | -1 | -4 | 1
COc1ccc(-n2nc(C(=O)NCC(=O)N3CCC(C)CC3)c3ccccc3c2=O)cc1 | -6 | -0.2 | 5 | -4 | 0 | -1
O=c1c2ccccc2oc2cc(C#CC3(O)CCCCC3)ccc12 | 2 | 1.1 | 1 | -2 | 4 | .
CCN(CC(=O)Nc1c(F)cccc1F)C(=O)Cc1ccc(OC)c(S(=O)(=O)N2CCOCC2)c1 | 15 | -0.2 | -1 | -2 | 0 | 6
O=C(NCCc1cccnc1)c1cc(COc2ccc(F)cc2F)on1 | 18 | -0.8 | -7 | -8 | . | -3
CC1=CSC2=NS(=O)(=O)CCN12 | . | . | 0 | -7 | 6 | 15
C#Cc1ccc([C@@H]2C=C(C(=O)NCc3ccccc3)O[C@H](OCc3ccc(CO)cc3)C2)cc1 | 32 | 1.7 | -4 | -8 | -2 | -1
CCc1nccn1CCC(=O)N1CCCC(N2CCN(c3cccc(Cl)c3)CC2)C1 (centres undefined) | 11 | 0.5 | 7 | -11 | -1 | 26
O=C(Cn1ccccc1=S)c1ccc(Cl)c(Cl)c1 | -1 | 0.1 | -10 | -9 | -13 | .
O=c1c2ccccc2nnn1CSc1ccccc1F | 4 | -0.2 | 2 | -2 | 3 | -3
CC(C)c1ccc(N2CCN(C(=O)c3ccccc3NC(=O)/C=C\C(=O)O)CC2)cc1 | -8 | -0.1 | -11 | -2 | -2 | -10
O=C(COC(=O)CN1C(=O)C2CCCCC2C1=O)Nc1c(Cl)cccc1Cl (centres undefined) | 4 | -0.2 | -3 | 0 | 7 | 2
O=P(Cc1ccncc1)(c1ccccc1)c1ccccc1 | 13 | -1.1 | 8 | -10 | 9 | -7
CCOC(=O)C1CCN(C(=O)c2c(C)oc3c2C(=O)c2ccccc2C3=O)CC1 | 7 | -1.3 | 2 | 14 | -3 | -8
CCCn1c(SCC(=O)NNC(=O)c2ccc(C)cc2)nnc1C(C)C | 4 | -0.5 | 0 | -4 | -16 | 5
CCOC(=O)c1cnc2c(C#N)cnn2c1N | 3 | 0.5 | ? | 23 | -15 | 10
Cn1c(=O)c2ncn(CC(=O)NCCOCc3ccccc3Cl)c2n(C)c1=O | 11 | -0.5 | 13 | -3 | 1 | 1
